# ClpP mod – qHTS Assay for Activators of ClpP. AID 651965, 2013. purified B. subtilis ClpP, FRET peptide cleavage, 20 min. Potency, µM (top dose mostly 57.5 µM), without a hit: top-dose activity change, negative = active. 1.9% of 340,000 active; active = well fitted falling curve with a large enough effect; inconclusive = small, poorly fitted or top-dose-only effect; inactive = no such curve, though single readings can be large or run the other way; further: potency means the concentration at half of the fitted maximal effect; the source files actives as falling curves though it sought activators and does not explain the sign; nearly all actives have a fitted effect of over 65% in size; many hits overshoot -100%
# Target sequence (P80244 whole entry, looked up): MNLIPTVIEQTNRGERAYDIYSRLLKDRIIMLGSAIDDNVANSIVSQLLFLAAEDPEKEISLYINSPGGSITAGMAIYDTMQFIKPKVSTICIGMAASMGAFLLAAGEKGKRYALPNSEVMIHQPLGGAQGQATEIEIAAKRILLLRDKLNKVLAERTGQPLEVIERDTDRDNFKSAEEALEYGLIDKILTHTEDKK
#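 FRET quenching reversal measured ClpP activation: 10 microg/mL B. subtilis ClpP at pH 8 with the FRET-FV decapeptide, read at 430 nm after 320 nm excitation. The 20-min minus 0-min signal was scaled between DMSO/no-enzyme wells and ADEP (5.8 microM final).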
# gsp antag – qHTS for Antagonists of gsp, the Etiologic Mutation Responsible for Fibrous Dysplasia/McCune-Albright Syndrome: qHTS. 0.4% of 340,000 active. Potency, µM (series often up to 76.9 µM), for inactives: at the highest dose activity change, negative = inhibition, actives largely listed as inhibitors. gsp-mutant cells, cAMP HTRF, 30 min; control for the full effect not named in the record; active = falling curve of any shape with a large fitted effect; inconclusive = falling curve, mostly with a smaller effect; inactive = flat or rising curve; cell line not stated here;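 further: intracellular cAMP measured with PDE inhibitor Ro 20-1724 present during compound exposure; potency means the concentration at half of the fitted maximal effect; on the % scale 0 is the no-effect control and ±100 the full control effect; nearly all actives have a fitted effect of over 65% in size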
#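 HTRF cAMP measurement after 30 min RT detection following 30 min, 37C compound treatment alongside […] (added as 300 uM solution) in G418-selected cells seeded at 2000/well and grown 16–24 h.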
# Menin MLL FP FL – qHTS Assay for Inhibitors Targeting the Menin-MLL Interaction in MLL Related Leukemias: Competition With Fluorescein Labeled MLL-derived Peptide. 290,000 tested, under 10 active. FP activity change, % at 61.4 µM. Fluorescence polarization, fluorescein-MLL peptide displacement from menin. AID 1766, 2009; inconclusive = falling polarisation curve, or a change in total fluorescence; inactive = total fluorescence flat and polarisation flat or rising; no compound was filed as active; the % refers to the polarisation; negative = inhibition;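 further: % of control where 0% means no effect; inhibitors lower the polarisation; unlabelled MLL peptide was the positive control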
# gsp agonist – qHTS for Agonist of gsp, the Etiologic Mutation Responsible for Fibrous Dysplasia/McCune-Albright Syndrome: qHTS; gsp mutant cells, cAMP HTRF, 30 min; control for the full effect not named in the record; Potency, µM (highest dose often 76.9 µM), inactives show at the highest dose activation (cAMP increase), hits mostly activators; 0.13% of 340,000 active; AID 624287, 2012; active = well fitted activation curve with a large enough effect; inconclusive = small, poorly fitted or top-dose-only effect, or another doubt; inactive = no such curve, though single readings can be large or run the other way; cell line not stated here;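 further: phosphodiesterase inhibitor Ro 20-1724 added with compounds to block cAMP breakdown; potency means the concentration at half of the fitted maximal effect; nearly all actives have a fitted effect of over 60% in size; about a fifth of the inactives were tested at one dose only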
#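 Cells stably selected in G418 were plated at 2000/well, grown 16-24 hr, then given compounds in DMSO with the PDE inhibitor […] (300 uM solution added) for 30 min at 37C; cAMP was read by HTRF.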
# TRPML1 ag – qHTS for Agonists of the Human Mucolipin Transient Receptor Potential 1 (TRPML1); Mucolipin-1 (Homo sapiens), Q9GZU1; TRPML1-expressing cells, Ca2+ dye fluorescence, FDSS; host cell line not named in the record; reference of the full effect not given here; activation, % (test concentration not listed); 0.12% of 410,000 active; in the data active = activation above about 50%; inconclusive = about 30% to 50%; inactive = below about 30%; further: 0% is about no effect; the text of the record puts the active cut at 80%
# Target sequence (Q9GZU1 whole entry, looked up): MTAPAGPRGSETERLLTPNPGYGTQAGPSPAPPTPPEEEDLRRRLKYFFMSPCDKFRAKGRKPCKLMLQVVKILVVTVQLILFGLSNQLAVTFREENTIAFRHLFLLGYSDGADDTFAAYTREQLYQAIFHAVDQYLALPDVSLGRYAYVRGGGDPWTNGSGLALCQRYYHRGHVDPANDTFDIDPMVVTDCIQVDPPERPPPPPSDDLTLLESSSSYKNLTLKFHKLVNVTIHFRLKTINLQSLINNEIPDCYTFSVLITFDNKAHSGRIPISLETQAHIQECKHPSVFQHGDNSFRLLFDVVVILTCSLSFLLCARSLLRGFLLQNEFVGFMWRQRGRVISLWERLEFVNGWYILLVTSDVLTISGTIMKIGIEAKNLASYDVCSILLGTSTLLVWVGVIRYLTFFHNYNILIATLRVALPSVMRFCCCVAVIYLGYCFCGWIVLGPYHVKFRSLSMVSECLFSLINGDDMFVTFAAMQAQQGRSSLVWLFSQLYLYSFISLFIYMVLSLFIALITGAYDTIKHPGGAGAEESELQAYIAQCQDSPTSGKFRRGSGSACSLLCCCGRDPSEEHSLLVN
#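 TRPML1-DL cells, Tet-induced overnight (~16 h, 37 degrees C), loaded 45-90 min at room temperature with Ca8 no-wash calcium dye plus quencher. FDSS fluorescence: 10 s baseline, compound pin-transfer, 110 s agonist read, then EC80 54-4 (4uM final) and 110 s antagonist read.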
# TRPML1 inh – qHTS for Inhibitors of the Human Mucolipin Transient Receptor Potential 1 (TRPML1). AID 624415, 2012. activity change, negative = inhibition, % (concentration not given with the values). 0.02% of 390,000 active. TRPML1-inducible cells, Ca2+ dye fluorescence, FDSS; hits give low values; inhibition of EC80 agonist-evoked calcium signal; in the data active means activity change below about -50%; inconclusive means about -30% to -50%; inactive means above about -30%;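 further: stimulus is agonist 54-4 at its EC80 concentration; on the % scale 0 is the no-effect control and ±100 the full control effect; compound concentration not given in the record; the text of the record puts the active cut at -80%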
#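 TRPML1-DL cells, Tet-induced overnight (~16 h, 37 °C) at 1,500 cells/well, were loaded with Ca8 no-wash dye plus quencher for 45-90 min at room temperature. Compounds were pinned during FDSS kinetic reading; agonist 54-4 at EC80 (4 uM final) then added.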
# * = called active by the depositor; ? = inconclusive; . = no result given; & = joins results of further samples; [ ] = dose if it differs, or a comment. This is a subset; rates above refer to the full screens.
SMILES,ClpP mod,gsp antag,Menin MLL FP FL,gsp agonist,TRPML1 ag,TRPML1 inh
COc1ccc(CNCCc2ccc(Cl)cc2Cl)cc1,-0.6%,5.9%,0.5,16.5%[15.4 µM],0.0,2.7
Cc1nc(-c2ccc(Cl)cc2)sc1C1(C)CC(c2ccccc2)=NO1 (configuration not stated),?,5.8%,.,.,-0.5,7.9
NC(Cc1ccccc1)c1nc2ccccc2[nH]1 (configuration not stated),.,11.5%,-0.4,?,-0.4,0.2
CCOc1cc(C2NCc3ccccc3-n3cccc32)ccc1O (configuration not stated),1.3%,9.6%,3.7,?,1.9,5.3
O=C(COc1ccccc1Cl)N1CCN(CCc2ccncc2)CC1,-9.0%,.,.,.,0.0,14.3
O=C(Nc1ccc(N2CCOCC2)cc1)C1CCN(S(=O)(=O)c2cccc(C(F)(F)F)c2)CC1,-4.0%,.,.,-36.4%[inhibitor],-0.2,2.7
O=C(c1ccc(N2CC3CC(C2)c2cccc(=O)n2C3)c([N+](=O)[O-])c1)N1CCCC1 (configuration not stated),-19.8%,2.0%,-1.6,1.5%[15.4 µM],-1.0,-5.4
CCCc1c(C)nc(-c2ccc(C)cc2)nc1OC(=O)N(C)C,.,-13.4%,3.2,21.9%[15.4 µM],0.9,-10.6
CCc1cc(=O)oc2cc(OCC(=O)N3C[C@H]4C[C@@H](C3)c3cccc(=O)n3C4)c(Cl)cc12,5.0%,3.0%,-5.6,.,.,.
COC(=O)C(NC(=S)N1CC2C[C@@H](C1)Cn1c2cccc1=O)C(C)C (some centres not stated),.,11.2%,-14.6,0.4%,0.6,-2.4
Cc1ccc(S(=O)(=O)N2CCCCC2)cc1NC(=O)CSc1ncnc2ccccc12,1.3%,21.0%,.,?,0.1,-2.4
Cc1ccc2c(c1)C1CN(C)CCC1N2C(=O)Nc1cccc(C(F)(F)F)c1 (configuration not stated),-0.9%,13.5%,1.2,19.8%,2.5,47.2
COc1ccc(CC(=O)C2C(=O)N(C)c3ccccc32)cc1OC (configuration not stated),-3.8%,-12.8%,.,7.3%,0.2,16.4
CCC(=O)N1N=C(c2c(O)n(C)c(=O)n(C)c2=O)CC1c1ccccc1 (configuration not stated),-6.0%,-6.3%,4.2,?,0.7,?
C=Cn1ccnc1P(=S)(c1c(C)nn(-c2ccccc2)c1C)c1nccn1C=C,1.3%,-6.8%,-3.0,-36.7%[inhibitor],-0.6,6.8
C=C[C@@H]1C[C@@]1(C)[C@@H](NP(=O)(c1ccccc1)c1ccccc1)c1ccccc1,3.2%,-15.9%,4.4&2.5,-19.6%,2.3,-4.3
Cc1cccc(N2C(=O)NC(=O)/C(=C\c3cc(C)n(-c4sc5c(c4C#N)CCCC5)c3C)C2=O)c1C,.,-1.4%,?,11.9%[15.4 µM],1.6,22.9
CC(=O)OC1(Cc2ccccc2)CN2CCC1c1ccccc12 (configuration not stated),-0.7%,8.2%,1.8,24.1%,1.9,-4.7
O=C(CN1CCCC1)Nc1ccc(Cl)cc1C(=O)c1ccccc1,.,-0.1%,-1.8,-0.4%,0.9,-4.6
O=C(CCCn1c(=O)[nH]c2cc(Cl)ccc2c1=O)N1CCC2(CC1)OCCO2,28.2µM*,11.8%,-0.9,11.6%[15.4 µM],0.6,-0.8

# Next part (four carried over from the part before).
SMILES,ClpP mod,gsp antag,Menin MLL FP FL,gsp agonist,TRPML1 ag,TRPML1 inh
Cc1cccc(N2C(=O)NC(=O)/C(=C\c3cc(C)n(-c4sc5c(c4C#N)CCCC5)c3C)C2=O)c1C,.,-1.4%,?,11.9%[15.4 µM],1.6,22.9
CC(=O)OC1(Cc2ccccc2)CN2CCC1c1ccccc12 (configuration not stated),-0.7%,8.2%,1.8,24.1%,1.9,-4.7
O=C(CN1CCCC1)Nc1ccc(Cl)cc1C(=O)c1ccccc1,.,-0.1%,-1.8,-0.4%,0.9,-4.6
O=C(CCCn1c(=O)[nH]c2cc(Cl)ccc2c1=O)N1CCC2(CC1)OCCO2,28.2µM*,11.8%,-0.9,11.6%[15.4 µM],0.6,-0.8
CCC(CC)N1CCN(Cc2nc3ccccc3c(=O)n2-c2ccc(F)cc2)CC1,-2.3%,-4.7%,-9.7,11.7%,-0.1,-18.0
O=C1NC(=O)C(=Cc2coc3ccc(O)cc3c2=O)C(=O)N1,-3.5%,-8.2%,8.4,3.6%,0.3,33.1
C[N+](C)(C)CC(=O)O,0.4%,5.9%,3.4,.,0.1,-4.4
COc1cc2[nH]c(=O)n(-c3ccccc3)c(=O)c2cc1OC,25.1µM*,17.6%,-0.2,-6.6%,3.1,-0.5
Cc1ccc(OCC(=O)N2CCN(CCc3ccncc3)CC2)cc1C,0.4%,.,.,.,-0.6,9.9
CCOC(=O)c1[nH]ncc1CN1CCCC(C(=O)c2cccc(Cl)c2)C1 (configuration not stated),-0.4%,5.1%,-3.8,20.1%,0.2,-2.9
CC1(C)Cc2c(sc3c2C(=O)NC(c2cccnc2)N3)CO1 (configuration not stated),31.6µM*,-0.5%,2.8,-18.6%,-0.3,-5.2
CCc1ccc(OCC(=O)N2CCN(CC(=O)Nc3ccccc3Cl)CC2)cc1,1.0%,0.9%,.,-40.0%[inhibitor],0.3,5.0
CCOC(=O)c1c(C)[nH]c(C(=O)C(C)N2CCCC2)c1C (configuration not stated),-1.2%,16.5%,-5.2,-1.1%[15.4 µM],-1.3,25.3
CCOC(=O)c1sc(/N=C/c2c(O)n(-c3ccccc3)c(=O)[nH]c2=O)c(C#N)c1C,-2.5%,14.4%,?,-13.4%,-0.8,-11.8
O=c1c2ccccc2[nH]c(=S)n1-c1ccc2c(c1)OCCO2,1.6%,2.6%,-1.5,-1.5%,0.4,18.8
COc1ccc(OC)c(N2C(=O)NC(=O)/C(=C/c3ccc([N+](=O)[O-])s3)C2=O)c1,.,?,?,2.3%[15.4 µM],-0.6,9.7
Cc1nonc1-c1nc(-c2nonc2N)n[nH]1,1.6%,-3.3%,5.7,?,1.1,0.7
CC1=NN(Cc2c[nH]c3ccccc23)C(C)(C)C1,.,6.1%,0.6,-27.1%,-0.1,-4.9
CC(=O)C1=NOC(CNc2ncc(C(F)(F)F)cc2Cl)C1 (configuration not stated),.,7.3%,0.9,-91.4%[inhibitor],0.0,13.4
O=C(Nc1ccccc1)OC1CN=C(N[N+](=O)[O-])NC1 (configuration not stated),.,2.0%,0.8,?,1.7,-0.6
Cc1cccc(NC(N)=S)c1,-0.8%,8.2%,1.2,-37.3%,0.4,-5.7
Cc1cccc(C)c1NC(=O)c1cccn(Cc2ccc3c(c2)OC(F)(F)O3)c1=O,0.8%,5.0%,1.0,-2.2%,1.3,-6.2
COCCCn1c(N)c(C(=O)Nc2ccccc2)c2nc3ccccc3nc21,.,-26.8%,4.1,13.6%,0.0,-10.7
CCc1ccccc1N1C(=O)NC(=O)/C(=C\c2cc(C)n(C)c2C)C1=O,-0.5%,-13.4%,13.0,-6.4%[15.4 µM],-0.2,43.7
C/C=C1\NC(=O)[C@@H](NC(=O)[C@H](CCc2ccc(O)cc2)NC(=O)[C@H](C)NC(=O)[C@H](O)CO)[C@@H](C)OC(=O)[C@H](C(C)C)NC(=O)[C@H](Cc2ccc(O)cc2)N(C)C(=O)[C@H](Cc2ccccc2)N2C(=O)C(CC[C@H]2O)NC1=O (some centres not stated),-0.5%,10.4%,.,.,0.1,2.8
CC(C)N1CCN(Cc2ccc3c(c2)OCCO3)CC1CCO (configuration not stated),0.1%,1.9%,1.2,9.1%,-0.3,-9.8
CC1(C)CC(N(CCc2ccccc2)Cc2ccccc2)CCO1 (configuration not stated),.,0.0%,-3.2,2.3%[15.4 µM],2.2,17.4
COC(=O)C(=O)N1CC2(C)CNCC(C)(C1)C2=O,.,8.3%,-11.4,3.1%,-0.3,-2.0
Cc1ccc(C)c(OCC(=O)N2CCN(Cc3ccc4c(c3)OCO4)CC2)c1,-12.2%,-11.1%,4.6,1.0%[15.4 µM],0.1,1.3
CC[n+]1c(SC)ccc2cc(OC)ccc21,?,8.3%,2.7,-76.6%[inhibitor],0.3,-14.1
Cc1cccc(CN2C(=O)CN=C(c3ccccc3)c3cc(Cl)ccc32)c1,0.6%,.,.,.,2.8,24.1
CN1CCN(CC#CCOc2ccc(Cl)cc2)CC1,-2.1%,1.9%,2.2,5.3%,.,.
CCOc1ccc(Cl)cc1CNCCc1ccccc1F,.,7.5%,-1.0,35.7%,0.3,22.5
COc1ccc(N2C(=O)NC(=O)/C(=C/c3ccc([N+](=O)[O-])s3)C2=O)cc1,-4.6%,-15.0%,?,0.1%,2.0,21.2
O=C1C2(c3ccccc3)CN3CN(C2)CC1(c1ccccc1)C3,-0.6%,5.2%,6.5,3.9%,1.4,-3.6
CCC12C=CCN3CCC4(c5cc(Br)c(OC)cc5N(C)C4C(O)(C(=O)OC)C1OC(C)=O)C32 (configuration not stated),0.7%,-8.6%,3.5,6.3%,1.7,1.9
CC(=O)N(C1=NCCCS1)c1ccccc1Cl,-3.5%,9.9%,2.2,1.2%,0.7,16.2
CCc1nn(CC(=O)N2CCC3(CC2)OCCO3)c(=O)c2cc3ccccc3n12,3.5%,-0.4%,1.8,?,-0.1,13.7
CCOc1c(P(=S)(N(C)C)N(C)C)c(C)nn1-c1ccccc1,-0.4%,5.8%,2.3,?,-0.7,-13.2
C[C@H]1CCCC(=O)CCCCCc2cc(O)cc(O)c2C(=O)O1,-2.5%,-19.9%,3.8,.,-0.5,22.0
O=c1[nH]c(CN2CC=C(c3ccccc3)CC2)nc2cc(C(F)(F)F)ccc12,-0.8%,6.5%,?,-3.5%,0.6,12.3
CCOC(=O)c1c(C=O)c2ccccc2n1Cc1ccccc1,-1.7%,-21.2%,-2.1,1.6%,.,.
O=c1[nH]c(=O)n(Cc2ccc(F)cc2)c(O)c1C=NCC1CCCO1 (configuration not stated),-1.0%,4.8%,-0.7,-16.0%,-0.8,33.2
Oc1ccc(C[C@H]2NCCc3cc(O)c(O)cc32)cc1O,.,-4.3%,?,3.7%[15.4 µM],0.1,-3.5
Cc1[nH]c2c(Cl)cccc2c1CCN,-3.0%,22.9%,3.6,-6.6%,1.9,-3.3
CCN1/C(=C/C=C/C2=[N+](CC)c3ccccc3C2(C)C)C(C)(C)c2ccccc21,-2.0%,.,.,23.0%,75.6*,-14.6

# Screens as filed in PubChem BioAssay.
